T cruzi inh – inhibitors of intracellular T. cruzi growth, primary screen, luminescence, NIH3T3 host cells; T. cruzi beta-gal in NIH3T3, 90 h; inhibition, % (test concentration not listed); 300,000 compounds, 1.4% hits; AID 1885, 2009;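 active = mean inhibition across valid replicates above about 55%, limit read from the data; inconclusive = mean below that limit but half or more replicates reach it; inactive = mean below it, under half of replicates reach it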;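 also: signal also drops with host cell toxicity which is not excluded here; 0% = plate median of DMSO wells and 100% = zero luminescence signal; higher percent means less beta-gal luminescence so fewer parasites; stock transfer was 50 nL into about 50 µL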
RanGTP-Impb inh – inhibitors of RanGTP-importin-beta interaction, primary screen, biochemical, FRET, CFP-Ran, YFP-importin-beta, homogeneous; inhibition, % (no concentration beside the values); 300,000 compounds, 1.1% hits; cell-free CFP-Ran/YFP-importin-beta FRET ratio; Ran GTPase (GTP-bound) - importin-beta complex;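 active = most replicates above 15%; inconclusive = exactly half above 15%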;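 also: 0% = DMSO wells and 100% = Ran loaded with GDP instead of GTP; wells of about 40 µL received 100 nL stock; the first replicate is given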
AF4-AF9 inh – inhibitors of AF4 peptide binding to AF9, primary screen, biochemical, AlphaScreen, biotin-AF4 peptide, FLAG-AF9, single point. Protein AF-9 (Homo sapiens), P42568. inhibition, % at 10 µM. 350,000 compounds, 0.47% hits;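 active = every replicate reaching a set inhibition limit, whatever the replicate mean, cut at about 25% in these data; inconclusive = mean inhibition reaches that limit but some replicates miss it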;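 also: 0% = plate neutral control median and 100% = total signal loss; the record names both 10 and 1 µM as test concentration; the first replicate is given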
Bfl-1 A1 inh – caspase 3/7 activation in MEF A1-2A-BIM cells, primary screen, A1 inhibitor project, cell-based, luminescence, HTS; 330,000 compounds, 0.066% hits; caspase activation, % (concentration not given with the values); Caspase-Glo 3/7 luminescence, 3 h; percent of clofoctol response, vehicle zero; AID 2462, 2010;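 active = over half of replicate activation scores above 10%, or exactly half above 10 with the replicate mean above 10; inconclusive = replicate mean below 10 yet half the replicates above 10; inactive = over half of replicates below 10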;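 also: wells of about 30 µL received 50 nL stock; many hits fall short of the cut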
Vif A3G – inhibitors of Vif binding to APOBEC3G peptide, primary screen, biochemical, TR-FRET, GST-Vif 1-94, biotin-A3G peptide, dose response retest (AID 1117319). Virion infectivity factor (Human immunodeficiency virus type 1 group M subtype B (isolate …. TR-FRET GST-Vif / biotin-A3G peptide binding; higher % means a stronger effect; test concentration not given here; strong numbers were not always called active. inhibition, %, or IC50 in µM where a hit was titrated. 260,000 compounds, 0.57% hits;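 active = above the screen mean plus three standard deviations and confirmed in dose response; inconclusive = results disagree or hit not tested in dose response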;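 also: Vif residues 1-94 fused to GST binding biotinylated APOBEC3G peptide 110-148; 0% = full assay without inhibitor and 100% = GST in place of GST-Vif; retest series ran down from 100 µM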
Beta cell apopt – inhibitors of cytokine-induced beta cell apoptosis, primary screen, luminescence; INS-1E cytokine-induced death, ATP luminescence, 48 h; percent of positive-control rescue, neutral wells zero; protection from apoptosis, % (no concentration beside the values); 300,000 compounds, 0.8% hits; AID 435005, 2010;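 active = all replicates at 75% or more, or half of them and the mean; inconclusive = half reach 75% but not the mean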;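 also: 0% = cytokine-treated negative control wells and 100% = positive control rescue; higher means more ATP so stronger rescue from cytokine killing; wells of about 40 µL received 100 nL stock; the first replicate is given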
LANA-H2B inh – blockers of LANA interaction with H2A/H2B – biochemical, FP readout, HTS, primary screen; inhibition, % (no concentration beside the values); 320,000 compounds, 0.6% hits; cell-free LANA-H2A/H2B peptide, fluorescence polarization; in the data active = inhibition mostly above about 10%, no sharp cut-off; inactive = mostly below about 6.7%;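 also: stock transfer was 7.5 nL into about 10 µL; 0% = median of vehicle wells and 100% = median of positive control wells; one replicate is shown; the record names a cut of 25% in any replicate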
Target sequence (Q9QR71 whole entry, looked up): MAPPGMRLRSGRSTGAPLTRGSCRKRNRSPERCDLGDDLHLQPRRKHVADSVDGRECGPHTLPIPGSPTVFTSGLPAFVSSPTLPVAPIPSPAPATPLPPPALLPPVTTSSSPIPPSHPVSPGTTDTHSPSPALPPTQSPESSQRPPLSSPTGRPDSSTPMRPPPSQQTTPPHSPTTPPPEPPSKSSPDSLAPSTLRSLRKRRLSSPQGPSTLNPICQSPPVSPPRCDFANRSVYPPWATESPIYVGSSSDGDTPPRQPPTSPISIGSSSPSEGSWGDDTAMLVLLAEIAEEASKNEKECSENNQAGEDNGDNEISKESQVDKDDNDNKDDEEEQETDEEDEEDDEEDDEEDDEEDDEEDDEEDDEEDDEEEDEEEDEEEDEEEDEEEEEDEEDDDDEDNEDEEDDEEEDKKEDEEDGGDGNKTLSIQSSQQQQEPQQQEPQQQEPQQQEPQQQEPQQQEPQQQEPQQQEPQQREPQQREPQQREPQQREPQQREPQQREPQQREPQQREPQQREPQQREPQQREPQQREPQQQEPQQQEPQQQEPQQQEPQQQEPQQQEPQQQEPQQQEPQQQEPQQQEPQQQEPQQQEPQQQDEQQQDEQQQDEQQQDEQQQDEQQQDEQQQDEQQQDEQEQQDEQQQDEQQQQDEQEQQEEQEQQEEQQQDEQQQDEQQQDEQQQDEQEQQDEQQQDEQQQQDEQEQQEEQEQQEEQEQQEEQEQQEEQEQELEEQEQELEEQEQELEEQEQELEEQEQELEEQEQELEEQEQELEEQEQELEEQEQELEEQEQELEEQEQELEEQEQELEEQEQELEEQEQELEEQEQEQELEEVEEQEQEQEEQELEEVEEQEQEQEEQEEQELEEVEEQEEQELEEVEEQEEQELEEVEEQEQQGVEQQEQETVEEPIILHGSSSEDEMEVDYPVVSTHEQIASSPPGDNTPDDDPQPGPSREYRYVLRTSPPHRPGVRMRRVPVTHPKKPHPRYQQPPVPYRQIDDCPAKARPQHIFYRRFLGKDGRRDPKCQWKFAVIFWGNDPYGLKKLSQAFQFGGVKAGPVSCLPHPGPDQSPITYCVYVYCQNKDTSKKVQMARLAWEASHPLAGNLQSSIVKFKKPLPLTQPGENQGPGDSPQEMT
Calb FLC – C. albicans growth inhibition with fluconazole, primary screen, CaCi-2 strain, Alamar Blue fluorescence; growth inhibition, % (concentration not given with the values); 300,000 compounds, 0.57% hits; C. albicans CaCi-2 (fluconazole-resistant clinical isolate) + fluconazole, 48 h;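 active = most replicates above 75%; inconclusive = exactly half above 75%; inactive = most below 75%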;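 also: all wells also contain fluconazole at 8 µg/ml as a sub-toxic cotreatment; 0% = median of DMSO wells and 100% = median of geldanamycin control wells; wells of about 8 µL received 7.5 nL stock; the first replicate is given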
An asterisk follows results filed as active; u = inconclusive; x = no result given; & = joins results of further samples.

SMILES	T cruzi inh	RanGTP-Impb inh	AF4-AF9 inh	Bfl-1 A1 inh	Vif A3G	Beta cell apopt	LANA-H2B inh	Calb FLC
N/C(Cc1ccc(Cl)cc1Cl)=N\OC(=O)Cc1ccc(Cl)cc1	-8.5	1.0	-0.1	-1.7	x	0.5	-11.3	17.1
Cc1ccc(S(=O)(=O)Cc2ccc(C(=O)N3CCN(c4ccc(F)cc4)CC3)o2)cc1	-2.6	u	4.8	-0.1	4.7%	3.1	0.2	11.9
CC(=O)/C(=C\N(C)C)Sc1ccc(Cl)cc1	4.4	1.6	1.0	-0.2	x	x	5.4	-1.0
Cc1ccc(NC(=O)Cn2cnc3c(cnn3C(C)(C)C)c2=O)cc1	7.4	-0.6	x	-0.5	-2.6%	-3.9	-10.6	0.0
COc1ccc(NC(=S)Nc2ccc(OC(F)F)cc2)cn1	7.4	3.1	0.1	0.4	24.8%	-1.2	-0.7	-0.1
CCOc1ccc(CN2CCC(n3nccc3NC(=O)c3ccccc3OC)CC2)cc1	61.7*	-3.7	0.8	0.4	x	6.8	-3.4	-5.4
COC(=O)c1ccccc1NC(=O)CSc1n[nH]c(CC(C)C)n1	11.5	5.4	x	1.4	2.0%	x	-0.4	-0.9
CCCCNC(=O)CCCCCNS(=O)(=O)c1ccc(Br)cc1	-15.4	0.5	-0.3	0.2	4.5%	-1.7	-4.6	-7.4
O=C(NCCN1CCOCC1)c1cc2n(n1)C(C(F)(F)F)CC(c1ccc(F)cc1)N2 (stereo not drawn)	-33.2	3.0	x	0.4	0.9%	0.3	5.0	5.1
Cc1ccc(N(CCC#N)C(=O)COC(=O)c2nc3nc(C)cc(C)n3n2)cc1	-4.6	-2.3	-2.2	-0.2	-3.7%	-5.1	-3.9	1.4
CC1Cc2ccccc2N1C(=O)COC(=O)c1cccnc1Cl (stereo not drawn)	1.4	2.0	1.4	0.1	32.3%	-2.0	-2.0	6.7
O=C(COc1ccc(F)cc1Cl)Nc1ccc(S(=O)(=O)Nc2nccs2)cc1	1.4	-2.2	6.0	2.0	-5.6%	-1.0	-0.3	7.4
O=C(Cc1coc2ccc3ccccc3c12)Nc1nnc(C2CC2)s1	13.6	6.5	x	-0.2	-3.7%	-2.7	0.2	3.4
O=C(O)c1cccc2c1C(=O)N(C1CCCC1)C2	-14.1	0.4	1.4	-0.1	x	-2.6	-7.4	-1.2
COc1ccc(/C=C(\C#N)c2c[nH]c3ccccc23)cc1	23.7	17.3*	10.7	-1.4	x	23.4	2.3	38.9
Cc1ccc(N(C(=O)c2csnn2)C(C(=O)NC2CCCC2)c2cccnc2)cc1 (stereo not drawn)	-3.3	0.2	1.9	-0.8	3.3%	-7.8	0.9	1.6
Clc1ccc(CN(CC2CCCO2)C(c2cccs2)c2nnnn2C2CCCC2)cc1 (stereo not drawn)	31.2	3.1	x	0.4	-0.3%	15.9	-6.0	42.7
Cc1ccsc1C1CC(=O)NC2=C1C(=O)CC(C)(C)C2 (stereo not drawn)	-8.5	0.4	x	-0.1	u	4.0	-0.8	0.1
CCOC(=O)C1=C(C)NC2=C(C(=O)C(C(=O)OCC)C(c3cccc(OC)c3)C2)C1c1ccccn1 (stereo not drawn)	4.0	26.3*	x	0.1	2.4%&1.4%	-2.0	-2.8	7.2
COc1ccccc1CNC(=O)C1CCCN(S(=O)(=O)c2cccc3nsnc23)C1 (stereo not drawn)	-13.0	13.7	0.3	-0.3	x	-11.5	-1.6	-4.8
CN(Cc1ccc(F)cc1)C(=O)CCc1nnc(-c2ccccc2)o1	2.6	-1.0	-2.3	-0.4	9.6%	-2.3	2.2	4.4
CCOc1ccc2[nH]c3c(NCCN(CC)CC)ncnc3c2c1	1.1	-1.6	6.4	-0.2	-2.9%	-0.8	-4.3	-1.4
C(=C\c1ccccc1)/CNCC1CCCO1 (stereo not drawn)	-14.6	1.8	0.2	-1.8	-5.1%	-0.5	4.8	-2.5
Cc1c(NC(=O)/C=C/c2ccc(S(=O)(=O)N3CCOCC3)cc2)c(=O)n(-c2ccccc2)n1C	5.9	1.8	-18.8	-0.3	13.0%	-2.9	-2.1	-7.3
Cc1ccc(C(=O)N(CC(C)C)c2nc3ccccc3s2)o1	7.9	0.2	-1.0	0.6	-8.0%	-5.6	-7.7	-2.2
COc1ccc(C(=O)CCC(=O)N2CCN(c3ccccc3)CC2)cc1	-4.8	0.6	4.5	x	-5.0%	x	x	0.1
O=C(NCCc1c[nH]c2ccccc12)/C(=C/c1cccnc1)NC(=O)c1ccccc1	-20.2	u	6.9	0.3	-8.4%	-3.2	-2.5	-4.3
COc1ccc(-c2noc(CSc3nc(N)cc(=O)[nH]3)n2)cc1	-3.8	-2.5	-0.5	-0.3	-8.7%	10.5	-6.2	6.1
CCCCSc1nc2ccccc2n1CC(=O)O	-5.4	-1.0	x	1.0	-1.4%	-14.4	-1.0	-11.5
Nc1ccc2c(c1)sc1ccccc12	-2.4	-1.9	x	0.9	12.4%	-2.1	-9.3	4.0
O=C(Nc1ccc(F)c(F)c1)c1ccc2c(c1)OCO2	-19.3	-3.3	x	-5.0	-0.4%	6.0	7.8	-45.5
COc1cc(C2C(N3C(=O)c4ccccc4C3=O)C(=O)N2c2ccc(C)c(C)c2)cc(OC)c1OC (stereo not drawn)	-15.0	-2.2	3.6	0.3	x	-1.5	-4.3	-4.1
COC(=O)CSc1nnc(CNc2nc(-c3ccccc3)cs2)n1C	-8.7	-2.5	x	0.4	-1.0%	-6.1	-1.8	-10.5
COc1ccc(C2/C(=C(/O)c3ccc(F)cc3)C(=O)C(=O)N2CCCN2CCOCC2)cc1OC (stereo not drawn)	-15.1	5.8	x	-0.7	x	x	6.4	1.4
COc1ccc(C(c2c[nH]c3ccccc23)c2c[nH]c3ccccc23)cc1O	20.8	4.8	0.0	-0.4	2.9%	5.7	-2.3	-0.7
CCCCCCC(C)OC(=O)Nc1cccc2ccccc12 (stereo not drawn)	1.6	0.4	-3.9	0.5	x	x	-7.3	-7.3
O=C1CC(c2ccc(Cl)cc2)CC(O)=C1C=NCc1ccc(Cl)c(Cl)c1 (stereo not drawn)	-5.1	-0.3	x	-0.3	7.0%	-2.7	4.1	-15.4
C/C(CC(=O)NC1CCCCC1)=N\NC(=O)c1ccccn1	-0.5	-3.1	-1.9	-1.1	x	5.6	1.5	18.0
COc1cc(C(=O)NC(C)c2cnn(-c3ccccc3C)c2C)cc(OC)c1OC (stereo not drawn)	-4.0	-0.2	-3.6	-0.6	-4.2%	-7.8	-1.3	18.9
COc1ccc(CCN2C(=O)C3C4C=CC(C4)C3C2=O)cc1OC (stereo not drawn)	-0.5	-2.7	x	0.0	19.3%	-5.2	-3.7	-26.0
COc1ccc(OC)c(C2C=C(C34CC5CC(CC(C5)C3)C4)NC(=S)N2)c1 (stereo not drawn)	64.5*	2.3	14.9	0.4	x	1.6	7.6	-8.5
COc1ccc(NC(=O)C2CCCCC2)cc1S(=O)(=O)N1CCOCC1	x	x	-1.7	0.5	-1.2%	3.5	7.4	x
Cc1ccsc1C1C(C#N)=C(N)OC2=C1C(=O)CCC2 (stereo not drawn)	-7.8	8.2	-1.9	-0.1	8.5%	-3.6	-0.8	5.0
CC(=O)c1cc(C#N)c(Oc2ccc(Cl)cc2Cl)nc1C	18.1	-2.8	x	0.0	-10.0%	9.9	2.6	11.1
COc1ccc(NC(=O)c2cc(S(=O)(=O)N3CCCC3)oc2C)cc1	-4.2	1.3	-0.8	-0.4	x	-6.8	1.8	6.3
COc1ccccc1C(=O)NCCn1cc(SCC(=O)Nc2nnc(C)s2)c2ccccc21	12.9	3.1	x	-0.2	-1.5%	-2.7	1.8	-2.1
O=C1C2C(c3ccccc3)C=CC(c3ccccc3)C2C(=O)N1c1ccccn1 (stereo not drawn)	-6.2	-2.6	0.5	-0.2	-1.7%	-6.6	2.0	20.2
CC(=O)Oc1ccc2c3c(c(=O)oc2c1C)CCCC3	-8.6	8.5	-0.4	0.2	-1.1%	-2.1	1.2	41.5
C=CCOc1ccccc1CN1CCN(CCc2ccccc2)C(CCO)C1 (stereo not drawn)	-16.2	0.4	1.0	-0.9	x	-1.1	1.3	0.7
COc1ccccc1CNc1nc(S(=O)(=O)c2ccccc2)c(Cl)s1	6.8	6.1	x	-0.5	4.4%	-6.1	x	u
COC(=O)CSc1nnc(-c2cnccn2)n1C	-8.8	0.8	x	0.2	2.7%	-4.0	2.8	-10.3
O=C(CN1N=C(C(F)(F)F)CC1(O)c1ccc([N+](=O)[O-])cc1)c1ccccc1 (stereo not drawn)	0.6	4.4	x	-0.5	5.5%	8.5	0.2	-18.3
COc1ccc(CNC(=O)CN(CC2CCCO2)C(=O)CNS(=O)(=O)c2ccccc2)cc1 (stereo not drawn)	6.2	1.9	x	0.8	-3.7%	-2.2	4.0	7.2
COc1ccccc1CC(=O)N1CCN(c2ccccn2)CC1	-1.6	6.3	x	0.0	20.4%	-8.6	-0.5	-3.1
C=CCOC(=O)c1c(C)nc2cc3c(cc2c1C)OCO3	14.7	25.6	1.5	0.3	x	-8.4	-2.8	-0.7
COC(=O)C1CSC(C(=O)OC)N1C(=O)Nc1ccc(Cl)cc1 (stereo not drawn)	-15.2	1.1	x	0.2	-4.0%	4.2	1.1	-2.1
O=C(c1ccc(O)cc1)c1ccc(C(=O)c2ccc(O)cc2)cc1	2.9	-3.1	x	-0.2	3.4%&21.8%	-0.7	13.5*	-4.1
O=C(CNC(=O)c1ccc(Cl)cc1Cl)OCC(=O)N1CCN(c2ccccc2)CC1	-6.1	1.3	1.6	2.1	10.1%	1.1	-2.0	2.3
COc1ccc(-c2csc(Nc3ncccc3C)n2)cc1	26.0	0.7	x	-18.6	1.1%	0.5	-0.8	-1.5
CCn1c(=S)[nH]c2scc(-c3cccs3)c2c1=O	-3.3	u	-1.2	x	-60.6%	x	x	79.8*

(listing goes on)
SMILES	T cruzi inh	RanGTP-Impb inh	AF4-AF9 inh	Bfl-1 A1 inh	Vif A3G	Beta cell apopt	LANA-H2B inh	Calb FLC
CCC(=O)Nc1ccc(C(=O)NCCCn2ccnc2)cc1	7.0	-3.6	x	-0.4	-3.4%	-4.5	-4.9	-0.3
Cc1nc2ccc(-c3nc4ccccc4o3)cc2[nH]1	46.9	0.8	x	-5.2	-2.1%	1.9	-2.1	-29.3
Cc1cc(C(=O)Nc2ccncc2)c2ccccc2n1	-1.0	1.2	1.4	-0.2	-1.0%	-2.3	-4.2	-17.0
Cc1cc(NC(=O)CS(=O)(=O)c2c[nH]c3ccccc23)no1	0.4	-0.8	1.9	-1.7	0.3%	x	-1.9	5.3
CN(C)c1ccc(CN(C(=O)c2ccc(Cl)c([N+](=O)[O-])c2)C2CCS(=O)(=O)C2)cc1 (stereo not drawn)	-5.5	-0.4	0.0	0.3	11.3%	-6.3	-3.4	1.8
CC1CC(C)C[N+](=C2C=C(N3CCCC3)CC(C)(C)C2)C1 (stereo not drawn)	58.6*	-1.1	-2.6	x	19.1%	x	x	-15.5
O=C(NC1CCCCC1)C(c1ccc(F)cc1)N(Cc1ccco1)C(=O)c1csnn1 (stereo not drawn)	-2.1	u	1.2	0.0	x	0.1	6.6	1.7

Bioassay records: PubChem, several laboratories
